PINK1 modulator = modulators of PINK1 expression; PINK1 immunofluorescence, high-content cytometry, 24 h; Potency, µM (series often up to 76.6 µM), for inactives: at the top dose activation (PINK1 increase), usual class: activators; 0.2% of 410,000 active; AID 624263; active = well fitted activation curve with a large enough effect; inconclusive = small, poorly fitted or top-dose-only effect; inactive = flat fitted curve, though single readings scatter; cell line not stated here;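 further: potency means the concentration at half of the fitted maximal effect; % of control where 0% means no effect; nearly all actives have a fitted effect of over 65% in size; a mitochondrial uncoupler was the plate control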
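A stable cell line was treated with compounds at 5 concentrations for 24 hours, with CCCP as control. PINK1 levels and mitochondrial localization were measured by immunofluorescence with mitochondrial, cell and nuclear markers after fixation, read by laser-scanning cytometry.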
Six1-Eya2 inh = inhibitors of human Six1/Eya2 interaction; AlphaScreen GST-Six1/His-Eya2 binding, biochemical; stronger effect = lower value; control for the full effect not named in the record; 0.56% of 360,000 active; activity change, % (test concentration not listed); AID 651725; in the data active = activity change below about -65%; inconclusive = about -30% to -65%; inactive = above about -30%; further: on the % scale 0 is the no-effect control and ±100 the full control effect; compound concentration not given in the record
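Homogeneous AlphaScreen proximity assay pairing GST-Six1 with His-tagged Eya2 (added as 5X mix: 250 nM and 500 nM) in 50 mM Tris pH 8.0, 300 mM NaCl, 1 mM TCEP. Glutathione donor and nickel acceptor beads; 1 h, 37 °C, dark.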
TRPML1 agonist = activates the human TRPML1 channel | TRPML1-expressing cells, Ca2+ dye fluorescence, FDSS; host cell line not named in the record; reference of the full effect not given here | activation, % (test concentration not listed) | AID 624414 | 0.12% of 410,000 active; in the data active = activation above about 50%; inconclusive = about 30% to 50%; inactive = below about 30%; further: 0% is about no effect; the text of the record puts the active cut at 80%
Target sequence (Q9GZU1 whole entry, looked up): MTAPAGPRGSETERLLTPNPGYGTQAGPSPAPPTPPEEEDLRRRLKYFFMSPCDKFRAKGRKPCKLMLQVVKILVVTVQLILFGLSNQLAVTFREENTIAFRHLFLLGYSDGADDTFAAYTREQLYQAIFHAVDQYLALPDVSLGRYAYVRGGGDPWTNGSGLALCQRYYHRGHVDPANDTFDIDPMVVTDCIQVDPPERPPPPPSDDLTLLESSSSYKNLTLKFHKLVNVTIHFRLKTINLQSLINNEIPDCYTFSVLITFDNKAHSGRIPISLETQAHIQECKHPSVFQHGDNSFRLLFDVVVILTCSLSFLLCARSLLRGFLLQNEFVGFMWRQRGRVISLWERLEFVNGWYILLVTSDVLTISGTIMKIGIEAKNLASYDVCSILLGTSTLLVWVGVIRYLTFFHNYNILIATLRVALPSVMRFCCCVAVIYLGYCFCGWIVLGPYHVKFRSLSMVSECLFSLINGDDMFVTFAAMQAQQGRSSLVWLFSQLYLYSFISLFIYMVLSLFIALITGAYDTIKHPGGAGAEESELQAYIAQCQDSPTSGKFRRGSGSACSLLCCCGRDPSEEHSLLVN
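Tet-induced TRPML1-DL cells, 1,500 per well, cultured overnight, were loaded with a no-wash Ca2+ dye for 45–90 min. Calcium fluorescence was recorded on the FDSS for 110 s after compound addition, before the EC80 agonist (4 uM 54-4) was added.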
TRPML1 inh = blocks the human TRPML1 channel. Q9GZU1. TRPML1-inducible cells, Ca2+ dye fluorescence, FDSS; stronger effect = lower value; inhibition of EC80 agonist-evoked calcium signal. activity change, negative = inhibition, % (concentration not given with the values). 0.02% of 390,000 active. AID 624415; in the data active means activity change below about -50%; inconclusive means about -30% to -50%; inactive means above about -30%;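 further: stimulus is agonist 54-4 at its EC80 concentration; on the % scale 0 is the no-effect control and ±100 the full control effect; compound concentration not given in the record; the text of the record puts the active cut at -80%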
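Tet-induced TRPML1-DL cells loaded with Ca8 no-wash calcium dye were read kinetically on FDSS. Compound addition was followed by EC80 agonist 54-4 (4 uM final); inhibition was read over 110 s.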
D2 PAM = potentiates the human D2 dopamine receptor allosterically; AID 624464; 0.23% of 360,000 active; potentiation, % (test concentration not listed); P14416; DiscoveRx D2 beta-arrestin cells, luminescence, 90 min; 100% = 57 uM dopamine signal; active = potentiation of 50% or more; inconclusive = 30% to 50%; inactive = 30% or less;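 further: compound concentration not given in the record; tested on top of an EC20 dose of dopamine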
Target sequence (P14416 whole entry, looked up): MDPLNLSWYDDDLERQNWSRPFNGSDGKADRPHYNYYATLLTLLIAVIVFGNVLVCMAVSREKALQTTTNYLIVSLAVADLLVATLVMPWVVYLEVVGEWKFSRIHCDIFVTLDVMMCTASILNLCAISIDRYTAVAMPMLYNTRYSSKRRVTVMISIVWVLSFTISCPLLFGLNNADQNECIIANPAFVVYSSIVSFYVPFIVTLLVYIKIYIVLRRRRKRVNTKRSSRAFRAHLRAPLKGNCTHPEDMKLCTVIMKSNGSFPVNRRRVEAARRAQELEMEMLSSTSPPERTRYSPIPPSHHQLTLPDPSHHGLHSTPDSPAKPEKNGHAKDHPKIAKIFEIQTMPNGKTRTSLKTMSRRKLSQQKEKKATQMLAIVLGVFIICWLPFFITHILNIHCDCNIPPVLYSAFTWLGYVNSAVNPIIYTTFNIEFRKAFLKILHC
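D2 cells co-treated with compound plus 50 nM dopamine (EC20) for 90 min at 37 deg C to detect potentiation. Beta-arrestin recruitment was read as enzyme-fragment luminescence after 1 h at ambient temperature. Full response was set by 57 uM dopamine.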
D2 agonist = agonists of human D2 dopamine receptor (beta-arrestin); AID 624465; DiscoveRx PathHunter D2 beta-arrestin, luminescence, 90 min; 100% = 57 uM dopamine signal; activation, % (no concentration beside the values); P14416; 0.084% of 360,000 active; in the data active = activation above about 40%; inconclusive = about 15% to 40%; inactive = below about 15%; further: compound concentration not given in the record; the text of the record calls up to 30% inactive
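Agonist mode: compounds alone added to overnight-plated D2 PathHunter cells for 90 min at 37 C, with 57 uM final dopamine (EC100) defining full response. Beta-arrestin recruitment detected by chemiluminescent reagent, read after 1 h at ambient temperature.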
An asterisk follows results filed as active; & = joins results of further samples; [ ] = another dose, or the depositor's remark.

Screening CCOc1ccc(C(C)NC(=S)NC2CCCCC2)cc1OCC (configuration not stated) returned PINK1 modulator 2.0%, Six1-Eya2 inh -2, TRPML1 agonist 1.2, TRPML1 inh -2, D2 PAM -12 and D2 agonist -3.7.
CN1CCN(CCCCOc2cccc3ccccc23)CC1 was read as PINK1 modulator 3.7%, Six1-Eya2 inh -5, TRPML1 agonist 0.1, TRPML1 inh 12, D2 PAM -25 and D2 agonist -0.2.
Cc1nn2c3ccccc3n(Cc3ccccc3)c2nc1=O was read as PINK1 modulator -1.4%, Six1-Eya2 inh 7, TRPML1 agonist -0.5, TRPML1 inh -5, D2 PAM 3 and D2 agonist -1.7.
Cc1sc2ncnc(N3CCC(C(=O)Nc4nc(-c5ccc(F)cc5)cs4)CC3)c2c1C was read as PINK1 modulator -0.7%, Six1-Eya2 inh 1, TRPML1 agonist -0.5, TRPML1 inh 2, D2 PAM -6 and D2 agonist -5.0.
For O=S1(=O)CCN(Cc2ccc(Cl)c(Cl)c2)CC1 the results were PINK1 modulator -2.0%, Six1-Eya2 inh 15, TRPML1 agonist -0.1, TRPML1 inh 2, D2 PAM -6 and D2 agonist 2.0.
For O=C(CN1C(=O)NC(Cc2c[nH]c3ccccc23)C1=O)Nc1ccc(F)c(F)c1F (configuration not stated) the results were PINK1 modulator 1.9%, Six1-Eya2 inh 2, TRPML1 agonist -0.7, TRPML1 inh -3, D2 PAM 6 and D2 agonist 3.0.
Screening CN(Cc1cc2ccccc2[nH]c1=O)C(=O)C1CCCCC1 returned PINK1 modulator 0.8%, Six1-Eya2 inh -2, TRPML1 agonist -0.3, TRPML1 inh -11, D2 PAM -5 and D2 agonist -1.2.
For CCc1nc(CN2CCN(c3cc(C(F)(F)F)ccn3)CC2)c(C)[nH]1 the results were PINK1 modulator 1.0%, Six1-Eya2 inh -2, TRPML1 agonist 1.4, TRPML1 inh 16, D2 PAM -11 and D2 agonist -2.9.
For Cc1ccc(N(CC(=O)Nc2cccc(Cl)c2C)S(=O)(=O)c2c(C)noc2C)cc1 the results were PINK1 modulator 2.6%, TRPML1 agonist -0.6 and TRPML1 inh -8.
Screening COc1ccc(NC(=O)c2oc3ccccc3c2NC(=O)Cc2ccc(F)cc2)c(OC)c1 returned PINK1 modulator 1.4%, TRPML1 agonist -0.5 and TRPML1 inh -7.
Cc1ccn2c(Nc3ccc(C(C)C)cc3)c(-c3cccnc3)nc2c1 was read as PINK1 modulator 0.5%, TRPML1 agonist -0.5 and TRPML1 inh 16.
Screening COc1cccc(OC)c1OCCCN1CCC(Cc2ccccc2)CC1 returned PINK1 modulator 2.4%, Six1-Eya2 inh 1, TRPML1 agonist -0.1, TRPML1 inh 6, D2 PAM -25 and D2 agonist 5.7.
Screening O=C(NC(=S)N1CCN(c2ccc(F)cc2)CC1)C12CC3CC(CC(C3)C1)C2 returned PINK1 modulator 6.8%, Six1-Eya2 inh 4, TRPML1 agonist 11, TRPML1 inh 62, D2 PAM -12 and D2 agonist 3.0.
Screening CCOC(=O)N1CCN(C(=O)CSc2nc3c([nH]c4ccccc43)c(=O)n2C)CC1 returned PINK1 modulator -0.8%, Six1-Eya2 inh 4, TRPML1 agonist -0.5, TRPML1 inh 8, D2 PAM 7 and D2 agonist -1.9.
Screening O=S(=O)(NN1CCOCC1)c1cc(Cl)cc(Cl)c1O returned PINK1 modulator -1.0%, Six1-Eya2 inh -16, TRPML1 agonist 0.1, TRPML1 inh -3, D2 PAM -6 and D2 agonist -1.9.
`CC(C)Oc1ccc(CNC(=O)c2ccc(NC(=O)N3CC(C)Sc4ccccc43)cc2)cc1` (configuration not stated) gave PINK1 modulator -1.7%, TRPML1 agonist 0.9 and TRPML1 inh -14.
Screening CCCCCCNC(=O)C(C(=O)OCC)C1CCCCC1 (configuration not stated) returned PINK1 modulator 1.6%, Six1-Eya2 inh -1, TRPML1 agonist -0.2, TRPML1 inh 53, D2 PAM 6 and D2 agonist -2.1.
COc1ccc(CN2CCC[C@]3(N[C@H](c4ccc(C)cc4)[C@@H]4C(=O)N(Cc5ccccc5)C(=O)[C@@H]43)C2=O)cc1 was read as PINK1 modulator 1.7%, Six1-Eya2 inh -7, TRPML1 agonist -0.1, TRPML1 inh 3, D2 PAM -3 and D2 agonist -9.2.
Screening Cc1ccc(-c2cc(C(F)(F)F)n3ncc(C(=O)N4CCCc5ccccc54)c3n2)cc1 returned Six1-Eya2 inh 1, TRPML1 agonist 0.3, TRPML1 inh 7, D2 PAM -3 and D2 agonist -2.5.
Screening Cc1ccc(S(=O)(=O)Nc2c(O)c3ccccc3oc2=O)cc1 returned PINK1 modulator 1.1%, Six1-Eya2 inh -2, TRPML1 agonist -0.5, TRPML1 inh -14, D2 PAM -5 and D2 agonist -2.1.
Screening CCCOc1ccccc1N1C(=O)CC(N2CCOCC2)C1=O (configuration not stated) returned PINK1 modulator -0.2%, Six1-Eya2 inh 2, TRPML1 agonist -0.5, TRPML1 inh -8, D2 PAM -1 and D2 agonist -1.4.
For O=C(Nc1cc(S(=O)(=O)N2CCOCC2)ccc1O)c1ccc2c(c1)S(=O)(=O)c1ccccc1C2=O the results were PINK1 modulator 2.5%, Six1-Eya2 inh -23, TRPML1 agonist 2.4, TRPML1 inh 38, D2 PAM 5 and D2 agonist -3.2.
`COc1ccc(/C=C/C(=O)NCCN=C2NS(=O)(=O)c3ccccc32)cc1` gave PINK1 modulator -2.5%, Six1-Eya2 inh -12, TRPML1 agonist 0.4, TRPML1 inh -12, D2 PAM -11 and D2 agonist 3.3.
`O=C(Cn1cncc1-c1ccc([N+](=O)[O-])cc1)Nc1cccc2ccccc12` gave PINK1 modulator 2.5%, Six1-Eya2 inh 7, TRPML1 agonist -0.6, TRPML1 inh 4, D2 PAM 5 and D2 agonist 0.5.
CC(=O)Nc1nonc1NC(=O)c1ccc(F)cc1 was read as PINK1 modulator 0.7%, Six1-Eya2 inh 0, TRPML1 agonist 0.0, TRPML1 inh 6, D2 PAM -11 and D2 agonist -1.7.
`CCn1cc(CNC(=O)c2cc(COc3ccc(F)cc3F)on2)cn1` gave PINK1 modulator 0.1%, Six1-Eya2 inh -1, TRPML1 agonist 0.7, TRPML1 inh 7, D2 PAM -10 and D2 agonist 3.8.
Screening CC#CCC(CC#CC)c1nc2ccccc2c(=O)n1N returned PINK1 modulator 4.4%, Six1-Eya2 inh -2, TRPML1 agonist -0.9, TRPML1 inh 2, D2 PAM -3 and D2 agonist -4.6.
Screening NC(=O)COc1cc2oc(=O)c3c(c2cc1Cl)CCCC3 returned PINK1 modulator -2.5%, Six1-Eya2 inh -2, TRPML1 agonist -0.6, TRPML1 inh -13, D2 PAM -8 and D2 agonist -1.2.
For C/C(=N\NC(=S)NCCc1ccccc1)c1ccc(C#N)cc1 the results were PINK1 modulator -0.2%[38.3 µM], Six1-Eya2 inh 0, TRPML1 agonist 0.5, TRPML1 inh -3, D2 PAM -3 and D2 agonist -1.7.
For COc1ccc(-c2sc(Nc3ccccc3)n[n+]2C)c(C)c1C the results were PINK1 modulator 1.0%, Six1-Eya2 inh -1, TRPML1 agonist -0.1, TRPML1 inh 15, D2 PAM -31 and D2 agonist -0.1.
Screening Cc1cccc(C(=O)NNS(=O)(=O)c2ccc(F)cc2)c1 returned PINK1 modulator 1.1%, Six1-Eya2 inh -4, TRPML1 agonist 0.5, TRPML1 inh -7, D2 PAM -3 and D2 agonist 5.9.
Screening O=C(CSc1nc2ccccc2nc1Cc1ccc(Cl)cc1)N1CCCCC1 returned PINK1 modulator 0.2%, TRPML1 agonist 2.6 and TRPML1 inh 62.
CC1CCCCN1C(=O)CSc1nnc2c(n1)[nH]c1ccc(F)cc12 (configuration not stated) was read as PINK1 modulator 6.4%, Six1-Eya2 inh -13, TRPML1 agonist 0.7, TRPML1 inh 2, D2 PAM -5 and D2 agonist -1.0.
For COc1ccc(N2C(=O)CC(Sc3nccc(C)n3)C2=O)cc1 (configuration not stated) the results were PINK1 modulator 2.6%, Six1-Eya2 inh 1, TRPML1 agonist -1.2, TRPML1 inh 6, D2 PAM -15 and D2 agonist -3.0.
Cc1ccc2oc(C(=O)Nc3c(C(=O)c4ccc(C)c(F)c4)oc4ccccc34)cc(=O)c2c1 was read as PINK1 modulator 1.7%, TRPML1 agonist -0.4 and TRPML1 inh -7.
`CN(C)C(=O)CCc1ccc2c3c([nH]c2c1)[C@]1(CCC2CCCC2)[C@@H](C(=O)N2CCOCC2)C[C@H](CC(=O)NCc2ccco2)C(=O)N1CC3` gave PINK1 modulator -1.2%, Six1-Eya2 inh 1, TRPML1 agonist 1.0, TRPML1 inh -5, D2 PAM -6 and D2 agonist -1.2.
Screening COc1ccccc1NC(=O)Cn1nnc(C(=O)NCc2ccc3c(c2)OCO3)c1N returned PINK1 modulator 11%&5.2%, Six1-Eya2 inh 2, TRPML1 agonist 0.6&0.0, TRPML1 inh 3&-17, D2 PAM -3 and D2 agonist -8.2.
For Cc1c(-c2cccc(Cl)c2)nc2ccccc2c1C(=O)NC1CC1 the results were PINK1 modulator -0.5%, Six1-Eya2 inh 0, TRPML1 agonist 1.2, TRPML1 inh 0, D2 PAM -3 and D2 agonist -3.0.
`O=C(NC(=S)Nc1cccc2c(O)cccc12)c1ccccc1[N+](=O)[O-]` gave PINK1 modulator 5.9%, Six1-Eya2 inh -9, TRPML1 agonist -0.3, TRPML1 inh -18, D2 PAM 7 and D2 agonist 7.7.
For COC(=O)c1ccc(CSc2nnc(-c3ccncc3)o2)cc1 the results were PINK1 modulator 0.1%, Six1-Eya2 inh -13, TRPML1 agonist -0.1, TRPML1 inh 6, D2 PAM -9 and D2 agonist -1.9.
`Cc1ccc(-c2csc3ncnc(SCC(N)=O)c23)cc1` gave PINK1 modulator -0.6%, Six1-Eya2 inh 6, TRPML1 agonist -0.3, TRPML1 inh 3, D2 PAM 0 and D2 agonist 0.5.

Four structures out of the list, arranged by length of the SMILES, high to low.
Cc1sc2ncnc(N3CCC(C(=O)Nc4nc(-c5ccc(F)cc5)cs4)CC3)c2c1C was read as PINK1 modulator -0.7%, Six1-Eya2 inh 1, TRPML1 agonist -0.5, TRPML1 inh 2, D2 PAM -6 and D2 agonist -5.0.
`COc1ccc(/C=C/C(=O)NCCN=C2NS(=O)(=O)c3ccccc32)cc1` gave PINK1 modulator -2.5%, Six1-Eya2 inh -12, TRPML1 agonist 0.4, TRPML1 inh -12, D2 PAM -11 and D2 agonist 3.3.
Cc1ccn2c(Nc3ccc(C(C)C)cc3)c(-c3cccnc3)nc2c1 was read as PINK1 modulator 0.5%, TRPML1 agonist -0.5 and TRPML1 inh 16.
Cc1nn2c3ccccc3n(Cc3ccccc3)c2nc1=O was read as PINK1 modulator -1.4%, Six1-Eya2 inh 7, TRPML1 agonist -0.5, TRPML1 inh -5, D2 PAM 3 and D2 agonist -1.7.
